Screening data (PubChem BioAssay)
KCNQ2 inh: KCNQ2 potassium channel inhibitors, primary screen, cell-based, CHO-K1, FluxOR thallium flux, B-score (AID 2156). O88943. 20 min; hits give low values; only compounds with negative scores are shown here; some inactives read as strong as hits. B-score at 10 µM. actives 1.1% (n = 310,000);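 active = fluorescence ratio B-score at most minus 3 library SDs, with starting brightness B-score within 2 library SDs, cut at about -5.5 in these data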
Target sequence (O88943 whole entry, looked up): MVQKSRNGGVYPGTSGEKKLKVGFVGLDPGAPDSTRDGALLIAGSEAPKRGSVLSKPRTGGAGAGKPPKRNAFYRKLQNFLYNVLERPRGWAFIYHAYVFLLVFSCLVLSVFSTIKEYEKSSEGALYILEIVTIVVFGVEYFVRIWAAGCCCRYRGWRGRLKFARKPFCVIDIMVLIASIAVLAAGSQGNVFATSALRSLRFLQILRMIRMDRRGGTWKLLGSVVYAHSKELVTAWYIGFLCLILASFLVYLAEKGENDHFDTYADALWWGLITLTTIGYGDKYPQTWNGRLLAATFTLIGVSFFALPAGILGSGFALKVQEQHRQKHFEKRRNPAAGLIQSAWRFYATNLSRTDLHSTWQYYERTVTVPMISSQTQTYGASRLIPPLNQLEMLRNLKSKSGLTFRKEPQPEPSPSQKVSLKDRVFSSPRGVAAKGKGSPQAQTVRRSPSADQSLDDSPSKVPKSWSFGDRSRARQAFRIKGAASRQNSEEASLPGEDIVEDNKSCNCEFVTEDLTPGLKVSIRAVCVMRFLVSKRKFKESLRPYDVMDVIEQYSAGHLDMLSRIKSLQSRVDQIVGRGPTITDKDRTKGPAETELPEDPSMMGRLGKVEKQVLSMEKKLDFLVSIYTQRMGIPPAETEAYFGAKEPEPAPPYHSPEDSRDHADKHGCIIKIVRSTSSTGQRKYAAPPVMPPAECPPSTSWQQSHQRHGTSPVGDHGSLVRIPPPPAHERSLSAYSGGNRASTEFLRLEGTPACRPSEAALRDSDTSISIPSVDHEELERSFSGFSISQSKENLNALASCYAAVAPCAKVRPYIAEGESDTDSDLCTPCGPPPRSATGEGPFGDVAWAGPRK
KCNQ2 inh baseline: also measured in KCNQ2 inh; calls as there; B-score; measured here: initial fluorescence intensity artifact check;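 brightness before thallium and not channel activity; 0 = typical well and far values either way flag optical interference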
The depositor's hits bear a star; i = inactive. An excerpt, so the mix of outcomes need not match the whole.

smiles	KCNQ2 inh	KCNQ2 inh baseline
Cc1ccccc1N1CC(C(=O)Nc2ccc(S(=O)(=O)N3CCCC3)cc2)CC1=O (stereo unspecified)	i	0.94
O=c1c(Cl)c(O)c2cccc3c4ccccc4n1c23	i	-0.37
COc1ccc(OC)c(C2=NOC(C(=O)N3CCCc4ccccc43)C2)c1 (stereo unspecified)	i	0.22
CCc1cccc(C)c1NC(=O)N(C)C1CCCCC1	i	-0.14
Cc1cc2nn(-c3cccc4ccccc34)nc2cc1NC(=O)c1cccs1	i	-0.35
CCOc1ccc(C2=NNC(c3cccnc3)=Nc3ccc(OC)cc32)cc1	i	-0.02
O=C(NNc1c2ccccc2nc2ccccc12)c1cccc(O)c1	i	0.33
O=S(=O)(N1CCCCC1)N1CCN(c2ccccc2F)CC1	i	-1.8
CN(Cc1ccc(Br)cc1)CC(O)COc1cccc(Br)c1 (stereo unspecified)	i	-0.66
Cn1c(-c2cnn(-c3ccccc3)c2-n2cccc2)n[nH]c1=S	i	1.9
COc1ccc(NC(=S)NCCC2=CCCCC2)cc1OC	i	-0.03
O=C(CCN1C(=O)/C(=C/c2cccs2)SC1=S)Nc1ccccc1O	i	0.01

Individual results from above.
KCNQ2 inh baseline, `CCc1cccc(C)c1NC(=O)N(C)C1CCCCC1` is entered as -0.14
KCNQ2 inh baseline, `O=C(CCN1C(=O)/C(=C/c2cccs2)SC1=S)Nc1ccccc1O` is entered as 0.01
KCNQ2 inh baseline, `O=c1c(Cl)c(O)c2cccc3c4ccccc4n1c23` is entered as -0.37
KCNQ2 inh baseline, `O=C(NNc1c2ccccc2nc2ccccc12)c1cccc(O)c1` is entered as 0.33
KCNQ2 inh baseline, `COc1ccc(OC)c(C2=NOC(C(=O)N3CCCc4ccccc43)C2)c1` (stereo unspecified) is entered as 0.22

Back to the main list, starting 2 compounds before the break.
smiles	KCNQ2 inh	KCNQ2 inh baseline
COc1ccc(NC(=S)NCCC2=CCCCC2)cc1OC	i	-0.03
O=C(CCN1C(=O)/C(=C/c2cccs2)SC1=S)Nc1ccccc1O	i	0.01
COc1ccc(OC)c(C2C(C(=O)c3ccco3)=C(O)C(=O)N2CC2CCCO2)c1 (stereo unspecified)	i	0.22
CCOC(=O)c1c(NC(=O)Cn2nc(C(F)F)cc2C(F)F)sc(C)c1C	i	-1.6
CN(C)c1ccc(N=Cc2nc(-c3ccccc3)oc2OC(=O)c2cccc(Br)c2)cc1	i	8.7
CN(CC(=O)Nc1cccc(F)c1)C(=O)c1ccccc1OCCOc1ccccc1	i	0.59
O=C(c1cccs1)N1CCN(c2ncc(Br)cn2)CC1	i	0.9
Cc1ccc(-n2c(C)nc3c(cnn3-c3ccc(F)cc3)c2=O)cc1C	i	-0.69
Cc1c(C(=O)NCCSCc2c(Cl)cccc2Cl)cccc1[N+](=O)[O-]	i	3.1
COc1ccc(C)cc1NC(=O)C(OC(=O)c1cccc(S(=O)(=O)N(C)c2ccccc2)c1)c1ccccc1 (stereo unspecified)	-7.1*	0.7*
CC1(C)OC(=O)N(CC(=O)Nc2cccc(C(F)(F)F)c2)C1(C)O (stereo unspecified)	i	-0.66
O=C(c1ccc2c(c1)OCCO2)C1CCN(C(=O)Nc2ccc(F)cc2)CC1	i	-0.76
O=C(NC1CCCC1)C(c1ccc(F)cc1)N(C(=O)c1csnn1)c1ccccc1 (stereo unspecified)	i	0.91
C/C(=N\NC(=O)c1cc(O)ccc1O)c1cccc(NC(=O)c2ccc(Cl)cc2)c1	i	0.21

A draw from above in order of length of the SMILES, smallest number first:
smiles	KCNQ2 inh	KCNQ2 inh baseline
CN(CC(=O)Nc1cccc(F)c1)C(=O)c1ccccc1OCCOc1ccccc1	i	0.59
O=C(c1ccc2c(c1)OCCO2)C1CCN(C(=O)Nc2ccc(F)cc2)CC1	i	-0.76
CN(C)c1ccc(N=Cc2nc(-c3ccccc3)oc2OC(=O)c2cccc(Br)c2)cc1	i	8.7

Carrying on.
smiles	KCNQ2 inh	KCNQ2 inh baseline
Cc1cc(C)n2c(SCC(=O)N(C)C3CCS(=O)(=O)C3)nnc2n1 (stereo unspecified)	i	0.45
CC(Oc1ccc(Cl)cc1Cl)C(=O)Nc1ccc(S(=O)(=O)Nc2cnc3ccccc3n2)cc1 (stereo unspecified)	i	0.62
O=S(=O)(Nc1ccc2c(c1)OCCO2)c1ccc(Br)s1	i	0.17
CCOC(=O)C1=NNC2(c3ccc(Cl)cc3)C(=O)N(c3cc(C)cc(C)c3)C(=O)C12 (stereo unspecified)	i	0.92
O=C(CCl)Nc1cc(S(=O)(=O)N2CCOCC2)ccc1N1CCOCC1	i	0.27
Cc1cccc(-c2n[nH]c(=S)n2C)c1	i	1.3
Cc1c(C)n(C)c2ccc(C(=O)NCCCN(C)C3CCCCC3)cc12	i	1.9
C=CCNC(=O)c1cc2c(=O)c3ccccc3oc2nc1C	i	-1.9
O=C(NC1CCCN(c2ccc(C(F)(F)F)cn2)C1)c1cc(Cl)ccc1F (stereo unspecified)	i	0.01
CC[C@@]12C(=O)N(c3ccc(C)cc3)C(=O)N1[C@H](c1ccc(Br)cc1)[C@@H]1C(=O)N(C(C)(C)C)C(=O)[C@@H]12	i	0.3
CC1C2=C(CC(C)(C)CC2=O)NC2=C1C(=O)CC(C)(C)C2	i	-0.3
Cc1[nH]c(=O)c(C#N)c(C)c1CCC(=O)N(C)CC(=O)Nc1ccc(Cl)c(Cl)c1	i	1.7
Cc1occc1C(=O)NNC(=O)c1ccccc1C(=O)O	i	0.23
CCn1c(COc2cccc(C)c2C)nnc1SCC(=O)N1CCN(c2ccc(OC)cc2)CC1	i	0.9
COC(=O)c1cc(NC(=O)c2cc(C(C)(C)C)nn2Cc2ccc(F)cc2)ccc1N1CCOCC1	i	-1.4
COc1cc(C(=O)O)nc(OC)n1	i	0.68
CCCCNC(=O)c1onc(CSc2cc(C)cc(C)c2)c1C(=O)NCCCC	-5.6*	-0.39*
Cc1ccc2nccc(C(=O)N3CCCC(Nc4ccc(F)cc4)C3)c2c1 (stereo unspecified)	i	-2.2
O=C(CN1CCN(S(=O)(=O)c2ccccc2)CC1)Nc1ccc(Cl)cn1	i	0.39
Cc1[nH][nH]c(=O)c1C(c1ccccc1[N+](=O)[O-])C(C#N)C#N (stereo unspecified)	i	1.7
O=C(NNC(=O)c1cccs1)c1csc(N2CCOCC2)n1	i	-1.7
O=C(/C=C/c1ccc(Cl)cc1)N(Cc1cccs1)C1CCS(=O)(=O)C1 (stereo unspecified)	i	0.24
COC(=O)CCC(=O)N1CCCC(CNS(=O)(=O)c2ccc(OC)cc2)C1 (stereo unspecified)	i	-0.97
CCCN(Cc1ccccc1)C(=S)Nc1ccc(C(C)=O)cc1	i	-0.13
Cc1cc(=O)oc2c3c(cc(OCC(=O)N4CCC(C(=O)O)CC4)c12)OC(C)(C)CC3	i	0.81
O=C(NCCO)/C(=C\c1cccs1)NC(=O)c1cccs1	i	-0.03
CN(C)C(CNC(=O)Cc1cccc(C(F)(F)F)c1)c1ccccc1 (stereo unspecified)	i	1.3
Cc1ccccc1Nc1nc(N)nc(CSCc2c(C)noc2C)n1	i	0.25
COc1ccc(S(=O)(=O)N(C)CC(=O)Nc2ccccc2C(F)(F)F)cc1OC	i	0.01
CCCCCCCCCCOC(=O)c1csc2nnsc12	i	-0.14
CCOC(=O)C1CCN(Cc2oc(CO)cc(=O)c2O)CC1	i	0.41
O=C(Nc1cc(Br)ccc1O)C1CC(c2c(F)cccc2Cl)=NO1 (stereo unspecified)	i	-0.03
CCC(C)[C@H](NC(=O)c1cc2cc(Cl)ccc2n1C)C(=O)N1CCC(C(=O)O)CC1 (stereo partly specified)	i	-2
C#CC(=O)N(c1cccc(OC)c1)C(C(=O)NC1CCCC1)c1cccs1 (stereo unspecified)	i	0.02
CSCC[C@@H](C(=O)NCc1cccs1)N1Cc2ccccc2C1=O	i	3
O=C(NCCS(=O)(=O)N1CCN(c2ccccc2)CC1)c1ccc2c(c1)OCO2	i	-0.44
CCS(=O)(=O)N1CCN(C(=O)COc2ccc(-c3ccccc3)cc2)CC1	i	0.47
CCSc1nnc(-c2cc(Br)ccc2N=Cc2c(C)[nH]n(-c3ccccc3)c2=O)c(=O)[nH]1	i	0.05
COc1ccccc1OCC(=O)N/N=C1\CCc2ccccc21	-5.6*	-2.5*
O=C(NCc1ccc(F)cc1)c1ccc(CNc2c(N3CCOCC3)c(=O)c2=O)cc1	i	0.21
COc1cccc(N2CC(C(=O)Nc3nnc(SCC(=O)NCC4CCCO4)s3)CC2=O)c1 (stereo unspecified)	i	1.9
O=C(COC(=O)c1ccc(-c2ccc([N+](=O)[O-])cc2)o1)NC(=O)NC1CCCCC1	i	-1.4
CCOC(=O)c1c(NC(=O)c2ccco2)n(C2CCCCC2)c2nc3ccccc3nc12	i	0.31
CCOC(=O)C(CC)(CC)C(=O)/C=C/c1ccc(Br)cc1	i	0.02
CC(=O)Nc1c(-c2ccccc2)nc2ncccn12	i	1.6
CCOC(=O)N1CCN(C2=Nc3cccc4cccc2c34)CC1	i	1.6
O=C(O)c1c[nH]c2ccc(S(=O)(=O)N3CCOCC3)cc12	i	-3
CCC[C@@H]1C[C@@H](C(=O)N[C@@H](C2O[C@H](SC)[C@H](O)[C@@H](O)[C@H]2O)[C@H](C)Cl)N(C)C1 (stereo partly specified)	i	-0.6
CCc1ccc([C@@H]2C[C@H]3CN(Cc4ccccc4OC)C(=O)[C@]34CCCN24)cc1	i	0.14
Cc1ccc(Cl)c(OC(=O)c2nn(C(C)C)c(=O)c3ccccc23)c1	i	0.51
COc1ccccc1CN1CCNC(=O)C1CC(=O)NCc1c(C)n[nH]c1C (stereo unspecified)	i	1.8
COC(=O)c1nc2n(n1)C(c1ccc(OC)c(OC)c1OC)C1=C(CCCC1=O)N2 (stereo unspecified)	i	1.6
CC(C)(C)c1ccc(NC(=O)c2cc[n+]([O-])cc2)cc1	i	-0.01
Cc1cc2oc(=O)cc(CN3CCN(S(=O)(=O)/C=C/c4ccccc4)CC3)c2cc1C	i	0.25
COc1cccc(CNC(=O)C2CCN(S(=O)(=O)c3cccc4cccnc34)CC2)c1	i	-0.08
O=C(C1CCC(=O)N(C2CC2)C1)N1CCN(c2ccccc2Cl)CC1 (stereo unspecified)	i	-0.13
CC1=NN(c2ccccc2)C(=O)/C1=C\C=C1\N(C)c2ccccc2C1(C)C	i	-0.85
Cc1ccc(CNC(=O)CCC(=O)N2CC(C)Sc3ccccc32)cc1 (stereo unspecified)	i	0.09
CC1(C)Cc2c(cnn2-c2ccc(F)cc2)C(NC(=O)CCN2CCCCO2)C1 (stereo unspecified)	i	-0.16
C/C(CC(=O)Nc1ccc(N(C)C)cc1)=N\NC(=O)c1ccc(F)cc1	i	-0.01

Other records follow.
smiles	KCNQ2 inh	KCNQ2 inh baseline
COc1ccc(CNC(=O)[C@@H]2CCCN2C(=O)[C@@H]2Cc3ccccc3CN2C(=O)OC(C)(C)C)cc1	i	1.3
Cc1ccccc1N(C)C(=O)C1CCCN(c2ncnc3c2nc2n3CCCCC2)C1 (stereo unspecified)	i	3.4
CCOC(=O)c1ccccc1NC(=O)Cn1cnc2c(cnn2C(C)(C)C)c1=O	i	-0.29
CSc1ccc(S(=O)(=O)NCc2ccccc2C)cc1	-6.1*	0.05*
CC1CCN(Cc2nc(-c3ccccc3)no2)CC1	i	2
COc1cc(/C=C/c2cc(C(=O)O)c3ccccc3n2)cc(OC)c1O	i	-0.62
COc1ccc(NC2CCCN(C(=O)C3=NN(C)C(=O)CC3)C2)cc1OC (stereo unspecified)	i	-0.05
O=C(C1CC1)N1CCc2cc(S(=O)(=O)NCc3ccccc3)ccc21	i	0.32
Cc1ccc(OCc2nnc(SCC(=O)Nc3cccc4ccccc34)n2-c2ccccc2)cc1	-8.5*	-1.8*
CCc1ccc(NC2=CC(=O)CC(c3ccco3)C2)cc1 (stereo unspecified)	i	-0.46
Cc1ccc(NC(=O)Cc2nn(C)c(=O)c3ccccc23)cc1F	i	1.3
CCOC(=O)N1CCN(C(=O)/C(=C\c2ccc(SC)cc2)NC(=O)c2ccccc2)CC1	i	-0.15
CCCOC(=O)C1=C(C)NC2=C(C(=O)CCC2)C1c1cccc(OC)c1OC (stereo unspecified)	i	3.5
COc1cc(-c2noc(C)c2/C=C/c2ccc(OC(C)=O)cc2)cc(OC)c1OC	i	-0.54
Cc1cccc(N/C=C/C(=C(C#N)C#N)N(C)C)c1	i	1.3
CCOc1ccc(S(=O)(=O)N2CCC(C(=O)N3CCN(c4ccccc4)CC3)CC2)cc1	i	-0.71
COC(=O)c1ccc(Sc2ccc(F)cc2)c(N)c1	i	-1.8
CCC(=O)Nc1nnc(S(=O)(=O)N(CC(C)C)c2ccccc2)s1	i	0.34
CCCCCCSc1ccc([C@@H]2[C@@H]3C(=O)N(C)C(=O)[C@@H]3[C@]3(C(=O)OC)CCCCN23)cc1OC	i	-0.29
CCOC(=O)c1oc2ccccc2c1NC(=O)c1ccccc1OC	i	-0.99
CC(NC(=O)c1ccc(F)cc1Cl)C1CC2CCC1C2 (stereo unspecified)	i	-0.2
CC(C)(C)NC(=O)C1CC(=O)OC1(C)C (stereo unspecified)	i	2.7
CC(C)(C)OC(=O)N1CCC(NC(=O)c2[nH]cnc2C(=O)N[C@@H](Cc2ccccc2)C(=O)OCc2ccccc2)CC1	i	-0.33
COc1ccccc1NC(=O)CSc1nccn1Cc1ccc(F)cc1	i	0.73
Cc1cccc(NC(=O)CSc2nnc(C)n2Cc2ccccc2)c1	i	0.32

Laid out differently: results already given
Every second line gives: KCNQ2 inh, KCNQ2 inh baseline
- CCOc1ccc(S(=O)(=O)N2CCC(C(=O)N3CCN(c4ccccc4)CC3)CC2)cc1
 : i, -0.71
- COC(=O)c1ccc(Sc2ccc(F)cc2)c(N)c1
 : i, -1.8
